Compound activity (PubChem)
AmpC inh no det: Promiscuous and Specific Inhibitors of AmpC Beta-Lactamase (assay without detergent) | P00811 | AmpC nitrocefin hydrolysis, absorbance 480 nm, no detergent; potencies from a single point are estimates | Potency, µM (series often up to 28.7 µM), for inactives: top-dose activity change, negative = inhibition | 71,000 compounds, 1.8% hits | AID 585, 2007; active = falling curve, for most hits resting on a single point; inconclusive = weak or doubtful change; inactive = flat or rising curve; further: % of control where 0% means no effect; about half of the hits show no inhibition at the top dose; a quarter of the inactives give rising signals
Target sequence (P00811 whole entry, looked up): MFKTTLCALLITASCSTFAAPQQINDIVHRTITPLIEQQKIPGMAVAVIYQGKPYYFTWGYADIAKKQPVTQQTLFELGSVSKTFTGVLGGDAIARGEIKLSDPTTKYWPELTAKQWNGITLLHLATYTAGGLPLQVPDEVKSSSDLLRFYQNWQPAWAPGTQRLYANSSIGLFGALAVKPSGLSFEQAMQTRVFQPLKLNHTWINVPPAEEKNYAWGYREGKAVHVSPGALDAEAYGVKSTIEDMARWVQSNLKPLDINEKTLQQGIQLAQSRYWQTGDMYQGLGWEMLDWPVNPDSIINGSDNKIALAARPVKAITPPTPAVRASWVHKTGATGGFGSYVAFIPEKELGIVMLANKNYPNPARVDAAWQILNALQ
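AmpC in 20 mM phosphate buffer pH 7.0 was preincubated 15 min at room temperature with compounds. Nitrocefin (800 uM stock) was then added and hydrolysis followed at 480 nm every 20 s for 4 min.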
* = called active by the depositor; [ ] = another dose, or the depositor's remark. Potency means the concentration at half of the fitted maximal effect.

`COCCNC(=O)C(c1ccc(C)o1)N(C(=O)c1snc(C(N)=O)c1N)c1cccc(C)c1` (stereo unspecified) gave AmpC inh no det 85.2%.
For Cc1onc(-c2ccccc2)c1C(=O)N1CCCSC1=Nc1ccccc1 the results were AmpC inh no det 64.6%.
Screening c1csc(Cn2nnnc2CN2CCN(c3nc4ccccc4s3)CC2)c1 returned AmpC inh no det 68.9%.
`C=CCn1c(CSc2nc3ccccc3s2)nnc1SCC(=O)NCCN1CCOCC1` gave AmpC inh no det 82.6%.
`CC(=O)NCc1ccc(-c2csc(N)n2)s1` gave AmpC inh no det -11.5%.
For C=CCn1c(=N)n(CC(=O)OC)c2ccccc21 the results were AmpC inh no det -9.0%.
COc1ccccc1CNC(=O)Cn1nnc(-c2ccncc2)n1 was read as AmpC inh no det 1.3%.
`COc1ccc(N2C(=O)CCC(C(=O)N3CCCCC3)C2c2ccc(F)cc2)cc1` (stereo unspecified) gave AmpC inh no det 66.4%.
`CCN1C(=O)c2ccc(C(=O)Nc3nccs3)cc2C1=O` gave AmpC inh no det 7.1%.
O=C(CN(C(=O)CNC(=O)c1ccco1)c1ccc2c(c1)OCO2)NC1CCCCC1 was read as AmpC inh no det 10.6%.

Gathered by group, the compounds so far with a furan ring, fused or not
`COCCNC(=O)C(c1ccc(C)o1)N(C(=O)c1snc(C(N)=O)c1N)c1cccc(C)c1` (stereo unspecified) gave AmpC inh no det 85.2%.
O=C(CN(C(=O)CNC(=O)c1ccco1)c1ccc2c(c1)OCO2)NC1CCCCC1 was read as AmpC inh no det 10.6%.

Carrying on.
Screening CCC(O)c1cc2c(cc1NC(=O)c1ccc(C)cc1)OCCO2 (stereo unspecified) returned AmpC inh no det inconclusive.
`COC(=O)N1CCC2(CC1)CN(c1cccc(-c3ccccc3)c1)C2` gave AmpC inh no det 2.0%.
Screening O=C(Cc1cccs1)Nc1ccc(S(=O)(=O)Nc2ncccn2)cc1 returned AmpC inh no det -23.6%.
`O=C(Nc1nccs1)C(NS(=O)(=O)c1ccc(Br)s1)c1ccccc1` (stereo unspecified) gave AmpC inh no det inconclusive.
`Nc1ccc(Sc2ccc(N)cc2)cc1` gave AmpC inh no det -9.4%.
C=CCn1c(Cc2cccs2)nnc1SCC(=O)Nc1ccc(OC)cc1 was read as AmpC inh no det 2.5%.
`Cc1ccc(N2CC(C(=O)NCCCn3ccnc3)CC2=O)cc1` (stereo unspecified) gave AmpC inh no det 1.3%.
`O=C(Cn1nnc(-c2ccccc2F)n1)Nc1ccc(S(=O)(=O)NC2CCCC2)cc1` gave AmpC inh no det -20.7%.
COc1ccc(CCC(=O)N2CCc3ccccc32)cc1 was read as AmpC inh no det -5.0%.
Screening COc1ccc(-c2nc(CNS(=O)(=O)c3cc(OC)ccc3OC)cs2)cc1 returned AmpC inh no det 18.0%.

Ordered by molar mass (high to low): part of the list above.
`O=C(Cn1nnc(-c2ccccc2F)n1)Nc1ccc(S(=O)(=O)NC2CCCC2)cc1` gave AmpC inh no det -20.7%.
Screening O=C(Cc1cccs1)Nc1ccc(S(=O)(=O)Nc2ncccn2)cc1 returned AmpC inh no det -23.6%.
Screening CCC(O)c1cc2c(cc1NC(=O)c1ccc(C)cc1)OCCO2 (stereo unspecified) returned AmpC inh no det inconclusive.

(more compounds)
`O=C(O)CSc1cccc2cccc(C(=O)O)c12` gave AmpC inh no det -5.2%.
For Cc1nc(SCC(=O)Nc2cc(C)on2)c2c(C)c(C)sc2n1 the results were AmpC inh no det 2.3%.
`C=C1CC[C@H](O)C/C1=C/C=C1\CCC[C@]2(C)[C@@H]([C@H](C)CCCC(C)C)CC[C@@H]12` gave AmpC inh no det 145.4%.
Screening O=C(NCC1CCCO1)C(C(=O)c1ccc(F)cc1)n1ccccc1=O (stereo unspecified) returned AmpC inh no det -8.1%.
Screening COCCCNC(=O)c1ccc2c(=O)n(C3CCCC3)c(=S)[nH]c2c1 returned AmpC inh no det 33.7%.
`O=C(CCn1nnc2ccccc21)Nc1nnc(Cc2ccc(F)cc2)s1` gave AmpC inh no det 9.1%.
`Cc1noc(C)c1COc1cccc(C(=O)OCC(=O)N2CC(=O)Nc3ccccc32)c1` gave AmpC inh no det 38.2%.
Cc1ccccc1N1C(=O)c2sc3nc4c(c(=O)n3c2C1=O)CCC4 was read as AmpC inh no det -16.8%.
`O=C(CCC1COc2ccccc2O1)NCc1ccco1` (stereo unspecified) gave AmpC inh no det 10.8%.
For O=C(O)c1c2c(c(O)c3c1CN(C1CCCCC1)CO3)OCN(C1CCCCC1)C2 the results were AmpC inh no det 3.7%[5.75 µM].
Screening COc1ccc(S(=O)(=O)N2CCCC(C(=O)NCCC3=CCCCC3)C2)cc1 (stereo unspecified) returned AmpC inh no det 54.5%.
CCCOC(=O)c1ccc(OCC(O)CN2C(=O)NC(C)(C)C2=O)cc1 (stereo unspecified) was read as AmpC inh no det 36.9%.
`CCCCn1c(O)c(C(C)=NCCc2ccccc2)c(=O)[nH]c1=O` gave AmpC inh no det 14.1%.
Screening O=C(CSc1oc(-c2ccco2)nc1S(=O)(=O)c1ccc(F)cc1)NCC1CCCO1 (stereo unspecified) returned AmpC inh no det 25.3%.
For CC(c1ccccc1)N1C(=O)CC(Sc2ncccc2C(=O)O)C1=O (stereo unspecified) the results were AmpC inh no det 1.2%.
`COc1ccc(-c2cnc(SCC(=O)Nc3ccc4c(c3)OCO4)n2Cc2ccco2)cc1` gave AmpC inh no det -11.1%.
For O=C(CCN1CCN(c2ccccc2F)CC1)Nc1ccc2c(c1)OCO2 the results were AmpC inh no det 2.3%.
`c1cncc(-c2nc(NCc3cccs3)c3ccccc3n2)c1` gave AmpC inh no det -6.7%.
Cn1c(=O)oc2cc(S(=O)(=O)N3CCCC(C(=O)NCCN4CCOCC4)C3)ccc21 (stereo unspecified) was read as AmpC inh no det 3.98µM*[single pt active].
Screening O/N=C1/CCSc2ccccc21 returned AmpC inh no det -4.0%.
For COC(=O)N1CCC2(CCN(Cc3ccccc3)CC2)CC1 the results were AmpC inh no det -1.5%.
Screening O=C(CSc1nnc(-c2ccco2)o1)NC1CCCCCC1 returned AmpC inh no det 7.9%.
`CN(C)C(=O)c1ccc(-c2cncnc2NCc2ccccc2)cc1` gave AmpC inh no det 10.9%.
`NC(N)=Nc1nc2ccc([N+](=O)[O-])cc2[nH]1` gave AmpC inh no det -6.4%[5.75 µM].
CCN1CCN(CCCOc2ccc(-c3ccccc3)cc2)CC1 was read as AmpC inh no det 88.4%.
Screening Cc1ccc(C(=O)CC2(O)C(=O)N(CCc3ccccc3)c3ccc(Br)cc32)o1 (stereo unspecified) returned AmpC inh no det 26.3%.
`O=C(Nc1ccccc1)N1CCCC2(CCN(C(=O)c3cc(C(F)(F)F)cc(C(F)(F)F)c3)CC2)C1` gave AmpC inh no det 92.0%.
`Cc1ccc2cc3c(N)c(C(=O)N4CCOCC4)sc3nc2c1` gave AmpC inh no det 42.4%.
COCCn1c(=S)[nH]c2cc(C(=O)N3CCN(Cc4ccc5c(c4)OCO5)CC3)ccc2c1=O was read as AmpC inh no det 99.7%.
For CC(=O)c1cc(C)ccc1OC(=O)c1cccnc1 the results were AmpC inh no det 19.6%.
For C=CCn1c(=O)[nH]c2cc(C(=O)N3CCN(c4ccc(C(C)=O)cc4)CC3)ccc2c1=O the results were AmpC inh no det 30.4%.
`CNC(=O)C1(CC(C)C)C=CCN1C(=O)c1ccccc1` (stereo unspecified) gave AmpC inh no det 8.5%.
Cc1ccccc1-c1nc(N2CCOCC2)c2ccccc2n1 was read as AmpC inh no det 21.1%.
`COc1ccc(-c2nc(SC)n(S(=O)(=O)c3ccccc3)n2)cc1` gave AmpC inh no det 1.6%.
For O=C1CC(c2cccs2)c2cc3c(cc2N1)OCCO3 (stereo unspecified) the results were AmpC inh no det -17.5%.
`CCn1cc(C(=O)Nc2nncs2)c(=O)c2cc(F)c(N3CCN(C(=O)c4ccco4)CC3)cc21` gave AmpC inh no det 78.3%.
For CN(C)c1oc(COc2ccc(F)cc2)nc1C#N the results were AmpC inh no det 23.9%.
Screening CCOCCCNC(=O)c1ccc2c(c1)N(Cc1ccccc1)C(=O)CS2=O (stereo unspecified) returned AmpC inh no det 24.5%.
Screening CCCCn1c(=O)[nH]c(=O)c2c1nc(CN1C(=O)c3ccccc3S1(=O)=O)n2CCC returned AmpC inh no det 36.4%.
For CC(C)CCn1c(SCC(=O)c2ccccc2)nc2c1c(=O)[nH]c(=O)n2C the results were AmpC inh no det 15.6%.

2 successive compounds from above, for reference:
Screening CCOCCCNC(=O)c1ccc2c(c1)N(Cc1ccccc1)C(=O)CS2=O (stereo unspecified) returned AmpC inh no det 24.5%.
Screening CCCCn1c(=O)[nH]c(=O)c2c1nc(CN1C(=O)c3ccccc3S1(=O)=O)n2CCC returned AmpC inh no det 36.4%.

(cont.)
`COC(=O)[C@@]1(Cc2ccc(OC)cc2)[C@H]2c3cc(C(=O)N(C)C)n(C[C@H](O)CO)c3C[C@H]2CN1C(=O)c1ccccc1` gave AmpC inh no det 150.4%.
Screening O=C(O)CN1C(=O)CNC1=O returned AmpC inh no det -2.4%.
O=c1c(-c2ccccc2)nc2cnc(N3CCOCC3)nc2n1Cc1cccs1 was read as AmpC inh no det 13.4%.
COCC(=O)N1CCC2(CCCN(Cc3ccc(C#N)cc3)C2)CC1 was read as AmpC inh no det 27.2%.
For Cc1ccc(-c2cn3c(=S)[nH]nc3s2)cc1 the results were AmpC inh no det -12.9%.
Screening COc1ccc(CN2CCN(c3ncccn3)CC2)c(OC)c1 returned AmpC inh no det 8.0%.
Screening Cn1c([N+](=O)[O-])cnc1CN1CCN(CCO)CC1 returned AmpC inh no det -12.0%[5.75 µM].
Screening c1ccc(OCc2nnc3sc(C4COc5ccccc5O4)nn23)cc1 (stereo unspecified) returned AmpC inh no det -3.7%.
For CCOC(=O)CCc1c(C)nc(SCC(=O)O)c(C#N)c1C the results were AmpC inh no det -6.4%.
`O=C(Nc1cccc(S(=O)(=O)C(F)F)c1)c1ccc(S(=O)(=O)N2CCOCC2)cc1` gave AmpC inh no det 30.2%.

In the list so far, 2 contain a nitro group on carbon:
`NC(N)=Nc1nc2ccc([N+](=O)[O-])cc2[nH]1` gave AmpC inh no det -6.4%[5.75 µM].
Screening Cn1c([N+](=O)[O-])cnc1CN1CCN(CCO)CC1 returned AmpC inh no det -12.0%[5.75 µM].

Other structures
`COc1ccc(CCNC(=O)c2cnn(-c3ccc(C)c(C)c3)c2NC(=O)c2ccco2)cc1OC` gave AmpC inh no det 48.0%.
For OC(c1ccccc1)(c1ccccc1)C1CCNCC1 the results were AmpC inh no det 3.8%[12.8 µM].
CCCCCn1c(CN2CCN(c3cccc(Cl)c3)CC2)nc2c1c(=O)[nH]c(=O)n2C was read as AmpC inh no det 154.6%.
COc1cc2c3cc1Oc1c(OC)c(OC)cc4c1[C@@H](Cc1ccc(O)c(c1)Oc1ccc(cc1)C[C@@H]3N(C)CC2)CN(C)C4 was read as AmpC inh no det 39.9%[5.75 µM].
`CCCC[C@H]1C[C@@H]1[C@@H]1N(P(=O)(c2ccccc2)c2ccccc2)[C@](CO)(c2ccccc2)CC12CC2` gave AmpC inh no det 32.0%.
Screening O=C(NC1CCCc2ccccc21)c1cccnc1 (stereo unspecified) returned AmpC inh no det 3.9%.
CN1C(=O)c2ccccc2Sc2ccc(C(=O)N3CCC4(CC3)OCCO4)cc21 was read as AmpC inh no det 65.8%.
For Cc1ccc(-c2nc(S(=O)(=O)c3ccc(F)cc3)c(SCC(=O)NCC3CCCO3)o2)cc1 (stereo unspecified) the results were AmpC inh no det 19.6%.
For CC(C)CN(C)c1nc(N)c(C(=O)N=C(N)N)nc1Cl the results were AmpC inh no det 4.5%.
C=CCNC(=O)c1c(N)n(-c2ccc3c(c2)OCO3)c2nc3ccccc3nc12 was read as AmpC inh no det -9.8%.
For O=c1c2[nH]c3ccccc3c2ncn1Cc1ccccn1 the results were AmpC inh no det -6.1%.
`COc1ccc(CCNC(=O)c2ccc(N3CCCC3=O)cc2)cc1OC` gave AmpC inh no det -3.0%.
For Cc1ccc(C)c2[nH]c(=O)c(CN(CC3CCCO3)C(=O)NC3CCCCC3)cc12 (stereo unspecified) the results were AmpC inh no det 93.8%.
CCn1c(=O)c2cc(C(=O)N3CCCC3)sc2c2ccccc21 was read as AmpC inh no det 3.98µM*[single pt active].
For CC1(C)CC(=O)C(C=NCCCn2ccnc2)=C(O)C1 the results were AmpC inh no det 4.7%.
`CC1CN(CCC(=O)Nc2ccc3c(c2)CCC3)CC(C)O1` (stereo unspecified) gave AmpC inh no det 13.6%.
COc1cc2c(=O)nc3n(c2cc1OC)C(c1ccccc1)N=C(N)N3 (stereo unspecified) was read as AmpC inh no det -10.7%.
Screening CCC(C(=O)NC1CCCC1)N(C(=O)c1snc(C(N)=O)c1N)c1ccc2c(c1)OCCO2 (stereo unspecified) returned AmpC inh no det 33.2%.
`CC1(C)NC(=O)N(CNc2cc(Cl)ccc2Cl)C1=O` gave AmpC inh no det 14.7%.
For COc1ccc(CCNS(=O)(=O)c2cccc3nsnc23)cc1OC the results were AmpC inh no det -10.2%.
`O=C(O)c1ccccc1` gave AmpC inh no det -6.3%.
For COc1ccc(CNc2ccnc(-c3ccc(N(C)C)cc3)n2)c(OC)c1 the results were AmpC inh no det 59.0%.
`CCOC(=O)c1ccccc1NC(=O)c1c(O)c2ccccc2n(CC)c1=O` gave AmpC inh no det 74.8%.
O=C(OCc1ccccc1Cl)c1ccc(-n2cnnc2)cc1 was read as AmpC inh no det 53.2%.
Screening CN1CCN(c2cc(-c3ccccc3Cl)ncn2)CC1 returned AmpC inh no det 2.9%.
O=C(NCCN1CCCCCC1)C1CCN(S(=O)(=O)N2CCOCC2)CC1 was read as AmpC inh no det -4.8%.
c1ccc(-c2nnc(-c3ccccn3)nn2)nc1 was read as AmpC inh no det -2.3%.
COC(=O)c1ccc(C(=O)OC)c(NC(=O)c2oc(C)nc2C)c1 was read as AmpC inh no det 49.9%.
Screening COc1cc2c(cc1OC)-c1cc3nc4ccccc4nc3n1C(C)(C)C2 returned AmpC inh no det 70.4%.

An excerpt. The share of hits here may be higher or lower than overall.
